AF4-AF9 inh: MLL-AF4/AF9 protein interaction inhibition | P42568 | AlphaScreen, biotin-AF4 peptide binding to FLAG-AF9 | inhibition, % at 10 µM | 350,000 compounds, 0.47% hits;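 active means every replicate reaching a set inhibition limit, whatever the replicate mean, cut at about 25% in these data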;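 further: 0% = plate neutral control median and 100% = total signal loss; the record names both 10 and 1 µM as test concentration; the first replicate is given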
Target sequence (P42568 whole entry, looked up): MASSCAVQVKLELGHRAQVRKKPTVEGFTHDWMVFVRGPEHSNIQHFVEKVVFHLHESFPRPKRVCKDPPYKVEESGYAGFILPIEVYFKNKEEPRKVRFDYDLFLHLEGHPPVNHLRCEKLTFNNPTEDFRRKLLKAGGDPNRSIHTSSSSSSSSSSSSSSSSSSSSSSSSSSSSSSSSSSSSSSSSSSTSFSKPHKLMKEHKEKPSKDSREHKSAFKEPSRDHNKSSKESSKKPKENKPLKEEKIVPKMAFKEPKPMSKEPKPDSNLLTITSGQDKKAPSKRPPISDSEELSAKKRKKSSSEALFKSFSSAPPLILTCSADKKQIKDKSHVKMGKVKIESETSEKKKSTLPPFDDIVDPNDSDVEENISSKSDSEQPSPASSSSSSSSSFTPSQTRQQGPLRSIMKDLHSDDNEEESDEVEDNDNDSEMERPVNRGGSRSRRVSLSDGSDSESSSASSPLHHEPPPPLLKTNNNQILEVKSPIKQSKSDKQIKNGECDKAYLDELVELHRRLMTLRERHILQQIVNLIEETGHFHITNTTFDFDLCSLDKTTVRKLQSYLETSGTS
rRNA inh HTS: inhibits bacterial ribosomal RNA function over humanized ribosomes | E. coli WT GFP vs humanized-ribosome RFP mutants, fluorescence, 24 h; active compounds read low; DMSO median 0, no signal -100 | GFP signal change (wild-type ribosome), % (test concentration not listed) | 350,000 compounds, 1.6% hits;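 active means significant combined selectivity score with lowered wild-type GFP, culture density cut under 30%, mutant RFP and density less affected; inactive means any of these conditions unmet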; further: one replicate is shown; some compounds called inactive have numbers as strong as hits
rRNA inh HTS OD600: second read-out of rRNA inh HTS, no call of its own (marks repeat the call); OD600 change, %; measured here: OD600 growth;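 optical density of the mix in the first replicate; 0 = DMSO median and -100 = no signal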
rRNA inh HTS RFP: also measured in rRNA inh HTS; calls as there; RFP signal change, %; measured here: RFP humanized mutant strains;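 first replicate; 0 = DMSO median and -100 = no signal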
Numbers without * were called inactive; & = joins results of further samples.

The line under a structure holds: AF4-AF9 inh	rRNA inh HTS	rRNA inh HTS OD600	rRNA inh HTS RFP
- C[C@@H]1CN([C@H](C)CO)C(=O)c2cc(-c3ccccc3F)cnc2O[C@@H]1CN(C)Cc1cccc(F)c1
 : -0.2	-5	-9	2.5
- CCC(=O)N1CC2(C1)CN(S(=O)(=O)c1ccccc1)[C@@H](CO)c1[nH]c3cc(OC)ccc3c12
 : -0.6	-4	-8	0.4
- CCC(=O)Nc1ccc2c(c1)OC[C@H](C)N(Cc1ccccn1)C[C@@H](C)[C@@H](OC)CN(C)C2=O
 : 2.0	2	1	-1.4
- COc1ccccc1NC(=O)N(C)C[C@@H]1Oc2cc(Br)ccc2S(=O)(=O)N([C@H](C)CO)C[C@H]1C
 : 1.5	-1	-5	-1.0
- C[C@@H]1CCCCO[C@@H](CN(C)C(=O)C2CCCCC2)[C@H](C)CN([C@@H](C)CO)C(=O)c2cc(NC(=O)Cc3ccccc3)ccc2O1
 : 1.1	-2	-6	4.2
- C[C@@H]1CN([C@@H](C)CO)C(=O)c2cccc(NC(=O)Nc3cccc4ccccc34)c2O[C@H]1CN(C)C(=O)Nc1ccc(F)cc1
 : 6.5	0	3	1.5
- COCc1cn(-c2nc3ccccc3s2)nn1
 : -3.9	3	5	-5.4
- C[C@@H]1CN([C@@H](C)CO)C(=O)c2cc(-c3ccc(C#N)cc3)cnc2O[C@H]1CN(C)CC1CCCCC1
 : -1.6	3	25	-1.3
- O=C(C[C@H]1C=C[C@@H](NC(=O)Cc2cccnc2)[C@@H](CO)O1)NCc1ccc2c(c1)OCO2
 : 1.4&1.2	2&12	3&5	-1.6&3.7
- Cc1ccc(Cn2cc(CN3CC(N4CCN(CCO)CC4)CS3(=O)=O)nn2)cc1 (configuration not stated)
 : -0.7	8	12	-1.1
- CCC(=O)N1[C@H](C#N)[C@H](c2ccccc2-c2cccc(C)c2)[C@@H]1CO
 : -2.7	6	8	-3.8
- COC(=O)[C@]12CCCCC=C1N(Cc1ccc(Cl)cc1Cl)C(=O)[C@H](CC(=O)N1CCOCC1)C2
 : 1.2	-37	-64	-3.2
- O=C(NCc1ccc(F)cc1)c1cc(C2CCCN(C(=O)C3CCCCC3)C2)on1 (configuration not stated)
 : -3.5	4	-44	6.8
- C[C@@H]1CN([C@H](C)CO)S(=O)(=O)c2ccc(-c3cncnc3)cc2O[C@@H]1CN(C)C(=O)Cc1ccncc1
 : 1.0	8	12	-2.7
- COc1ccc(S(=O)(=O)N[C@@H]2CC[C@@H](CC(=O)NCCc3ccncc3)O[C@@H]2CO)cc1
 : -0.2	3	-3	-1.5

(next part)
The line under a structure holds: AF4-AF9 inh	rRNA inh HTS	rRNA inh HTS OD600	rRNA inh HTS RFP
- C[C@H](CO)N1C[C@H](C)[C@@H](CN(C)Cc2ccc(C(=O)Nc3ccccc3N)cc2)Oc2ccc(NC(=O)CCN3CCOCC3)cc2C1=O
 : -4.0	4	9	1.4
- Cc1noc(C)c1NC(=O)Nc1ccc2c(c1)CC(=O)N([C@@H](C)CO)C[C@H](C)[C@H](CN(C)Cc1ccc(C(=O)Nc3ccccc3N)cc1)O2
 : 1.5	-3	-11	-2.3
- O=C(Nc1ccccc1)N[C@@H]1CC[C@@H](CCNC(=O)c2ccccc2F)O[C@@H]1CO
 : -0.5	0	9	-3.2
- C[C@@H]1CN([C@@H](C)CO)C(=O)c2cc(NC(=O)CCN3CCOCC3)ccc2O[C@H]1CN(C)S(=O)(=O)c1cccs1
 : -7.0	0	6	-2.2
- Cc1ccc(S(=O)(=O)N(C)C[C@@H]2OCCCC[C@H](C)Oc3ccc(NC(=O)NC4CCCCC4)cc3C(=O)N([C@H](C)CO)C[C@H]2C)cc1
 : -3.3	-5	6	-4.6
- C/C=C/c1ccc([C@@H]2[C@H](C#N)N(c3ncc(CC)s3)[C@H]2CO)cc1
 : 3.4	4	-27	19
- CN1CCN(C(=O)[C@H]2[C@H](CO)[C@H]3Cn4c(ccc(-c5cccnc5)c4=O)[C@H]3N2CC2CC2)CC1
 : -1.1	3	6	4.3
- O=C(COC(=O)Cn1[nH]c(=O)c2ccccc2c1=O)NNC(=O)c1ccc(Br)cc1
 : -0.7	-4	-1	-1.5
- C[C@H](CO)N1C[C@H](C)[C@@H](CN(C)Cc2cncnc2)Oc2cc(C#CC3CCCC3)ccc2S1(=O)=O
 : 7.1	-16	-44	36
- O=S(=O)(c1ccccc1)N1[C@@H](CO)[C@@H]2c3ccccc3NC[C@@H]21
 : -3.1	8	9	1.1
- CC(C)NC(=O)Nc1ccc2c(c1)CC(=O)N([C@@H](C)CO)C[C@@H](C)[C@H](CN(C)Cc1ccc(-c3ccccc3)cc1)O2
 : 6.6	-5	-33	21
- COC(=O)[C@@]1(Cc2ccc(F)cc2)[C@H]2c3cc(C(=O)N(C)C)n(Cc4ccc(S(C)(=O)=O)cc4)c3C[C@H]2CN1C(=O)c1ccccc1
 : 4.0	10	2	2.5
- COCC(=O)N1C[C@H]2[C@@H](c3ccccc31)[C@H](CO)N2C(=O)Nc1ccccc1F
 : -1.4	-2	5	-3.9
- O=S1(=O)CC(N2CCCC2)CN1Cc1cn(Cc2cccc(C(F)(F)F)c2)nn1 (configuration not stated)
 : -0.9	4	2	-4.2
- C[C@H](C(=O)N(C)C[C@H]1OCc2ccccc2-c2c(n(C)c3ccccc23)C(=O)N([C@H](C)CO)C[C@H]1C)c1ccccc1
 : -5.2	0	7	2.6

(more compounds)
The line under a structure holds: AF4-AF9 inh	rRNA inh HTS	rRNA inh HTS OD600	rRNA inh HTS RFP
- C[C@H]1CN([C@@H](C)CO)C(=O)c2cc(NC(=O)c3ccncc3)ccc2O[C@@H]1CN(C)C
 : 0.2	3	6	-0.8
- C[C@@H]1CCCCO[C@@H](CN(C)C(=O)c2ccccc2)[C@H](C)CN([C@@H](C)CO)C(=O)c2cc(NC(=O)c3ccccc3)ccc2O1
 : 1.2	-21*	-5.8*	4.9*
- O=C(NC1Cc2ccccc2C1)[C@@H]1N[C@@H]2c3cccc(=O)n3C[C@@H]2[C@H]1CO
 : 2.1	-2	13	1.2
- O=C(Nc1ccc(F)cc1)N[C@@H]1CC[C@H](CCNC(=O)c2ccccc2F)O[C@@H]1CO
 : -3.6	-3	-5	1.2
- CC(C)Cc1ccc(-c2cc3nc(NCCc4ccc(S(N)(=O)=O)cc4)ccn3n2)cc1
 : -4.6	0	6	11
- O=C(NCc1cccnc1)c1cc(C2CCCCN2S(=O)(=O)c2ccc(F)cc2F)on1 (configuration not stated)
 : 1.2	-3	3	1.5
- O=C(C[C@H]1CC[C@@H]2[C@H](COC[C@@H](O)CN2C(=O)Nc2cc(Cl)cc(Cl)c2)O1)N1CCCCC1
 : 0.9	-60	-76	-15
- COCCN1Cc2cc(C(=O)OC)c3c(c2C1=O)c1cc(OC)ccc1n3C(=O)c1ccccc1
 : 0.8	1	2	5.8
- C[C@H]1CN([C@@H](C)CO)C(=O)c2cccc(NC(=O)c3ccncc3)c2O[C@@H]1CN(C)S(=O)(=O)c1ccccc1
 : -3.1	-1	3	-1.7
- O=C(C[C@H]1C=C[C@H](NC(=O)c2ccccc2)[C@@H](CO)O1)Nc1ccc(-c2ccccc2)cc1
 : 0.5	-6	-1	0.0
- COc1ccc(-c2cnc3c(NC(C)=O)cc(-c4ccccc4OC)cn23)cc1OC
 : 6.9	-7	-12	1.3
- O=C(C[C@@H]1C[C@H]2c3cc(NC(=O)NC4CCCCC4)ccc3O[C@H]2[C@@H](CO)O1)NCc1ccncc1
 : -19	1	2	-0.9
- C[C@@H]1CCCCO[C@H](CN(C)CC2CCCCC2)[C@@H](C)CN([C@H](C)CO)C(=O)c2cc(NS(=O)(=O)c3ccccc3)ccc2O1
 : -4.7	1	5	3.3
- C[C@@H]1CN([C@@H](C)CO)C(=O)c2cc(NC(=O)c3ccccc3)ccc2O[C@@H](C)CCCCO[C@H]1CN(C)C(=O)Nc1ccc2c(c1)OCO2
 : -2.2	-3	-3	-3.9
- CN(C)C(=O)C[C@@H]1CC[C@@H]2[C@H](COC[C@@H](O)CN2C(=O)C2CC2)O1
 : -0.5	2	1	2.5

Some entries already given, showing only rRNA inh HTS RFP, rRNA inh HTS and AF4-AF9 inh:
compound,rRNA inh HTS RFP,rRNA inh HTS,AF4-AF9 inh
O=C(Nc1ccc(F)cc1)N[C@@H]1CC[C@H](CCNC(=O)c2ccccc2F)O[C@@H]1CO,1.2,-3,-3.6
C[C@@H]1CCCCO[C@H](CN(C)CC2CCCCC2)[C@@H](C)CN([C@H](C)CO)C(=O)c2cc(NS(=O)(=O)c3ccccc3)ccc2O1,3.3,1,-4.7

Going on with the list.
The line under a structure holds: AF4-AF9 inh	rRNA inh HTS	rRNA inh HTS OD600	rRNA inh HTS RFP
- O=C(Cc1ccccn1)N[C@H]1CC[C@H](CC(=O)N2CCCCC2)O[C@H]1CO
 : -0.1	2	4	0.5
- C[C@@H]1CN([C@H](C)CO)C(=O)c2cc(NC(=O)Nc3ccc(C(F)(F)F)cc3)ccc2O[C@@H](C)CCCCO[C@@H]1CN(C)C(=O)NC1CCCCC1
 : -0.5	0	7	-1.5
- COc1ccc(S(=O)(=O)N2[C@@H]3CNC[C@H]2C3c2ccc(-c3cccc(C)c3)cc2)cc1 (some centres not stated)
 : -3.0&3.2	-4&-57	-5&-80	6.3&-7.3
- Cc1cccc(C)c1-n1nnnc1C1(C)CCC(=O)N1Cc1ccco1 (configuration not stated)
 : -1.5	7	6	4.1
- CN(C)CC(=O)N[C@@H]1CC[C@H](CCNS(=O)(=O)c2ccccc2)O[C@H]1CO
 : -0.9	3	10	-0.6
- CC(C)NC(=O)Nc1ccc2c(c1)C(=O)N([C@@H](C)CO)C[C@H](C)[C@@H](CN(C)Cc1ccc(C(F)(F)F)cc1)O2
 : 0.3	0	-2	1.8
- COc1ccccc1-c1cc(NC(C)=O)c2ncc(-c3cccc(C(C)=O)c3)n2c1
 : -1.1	1	-12	2.2
- O=C(C[C@H]1C=C[C@@H](NC(=O)Cc2ccccn2)[C@H](CO)O1)NCCc1ccncc1
 : -0.7	-2	7	-3.5
- COc1ccccc1NC(=O)N1C[C@@H](O)COC[C@@H]2O[C@@H](CC(=O)NCCc3ccccc3)CC[C@H]21
 : -13	-1	-13	-4.7
- Cc1ccc(S(=O)(=O)N(C)C[C@@H]2Oc3ccc(NC(=O)CCCN(C)C)cc3CC(=O)N([C@H](C)CO)C[C@@H]2C)cc1
 : 1.0	6	3	0.7
- COc1ccc(S(=O)(=O)N(C)C[C@@H]2OCCCC[C@@H](C)Oc3ccc(NC(=O)C4CCCCC4)cc3C(=O)N([C@@H](C)CO)C[C@H]2C)cc1
 : -2.1	-6	-6	-7.0
- COc1ccc(S(=O)(=O)N(C)C[C@@H]2Oc3ccc(NC(=O)Cn4cnnn4)cc3CC(=O)N([C@H](C)CO)C[C@@H]2C)cc1
 : 0.0	4	10	-3.6
- C[C@@H]1CN([C@H](C)CO)C(=O)c2cc(NS(=O)(=O)c3ccc(F)cc3)ccc2O[C@@H]1CN(C)C(=O)Nc1cccc2ccccc12
 : -1.5	-5	-5	1.5
- COc1cc(CC(=O)OCC(=O)NC2CCCCC2C)cc(OC)c1OC (configuration not stated)
 : 0.9	6	12	-1.4
- CC=Cc1ccc2n(c1=O)C[C@@H]1[C@@H](CO)[C@H](C(=O)NCCc3cn(C)cn3)N(C(=O)CC)[C@H]21 (mixture of isomers)
 : -2.4	3	12	-3.2

A portion from further up:
The line under a structure holds: AF4-AF9 inh	rRNA inh HTS	rRNA inh HTS OD600	rRNA inh HTS RFP
- COc1cc(CC(=O)OCC(=O)NC2CCCCC2C)cc(OC)c1OC (configuration not stated)
 : 0.9	6	12	-1.4
- CC=Cc1ccc2n(c1=O)C[C@@H]1[C@@H](CO)[C@H](C(=O)NCCc3cn(C)cn3)N(C(=O)CC)[C@H]21 (mixture of isomers)
 : -2.4	3	12	-3.2

Next section.
The line under a structure holds: AF4-AF9 inh	rRNA inh HTS	rRNA inh HTS OD600	rRNA inh HTS RFP
- Cc1noc(C)c1NC(=O)Nc1ccc2c(c1)CC(=O)N([C@@H](C)CO)C[C@H](C)[C@H](CN(C)S(=O)(=O)c1ccc(F)cc1)O2
 : -1.8	5	8	0.3
- C[C@@H]1CCCCO[C@H](CN(C)S(C)(=O)=O)[C@@H](C)CN([C@H](C)CO)C(=O)c2cc(NC(=O)NC3CCCCC3)ccc2O1
 : -3.4	0	8	-1.5
- CCc1ccc([C@H]2[C@@H]3C(=O)C[C@@H]4C(=O)N(Cc5ccccc5)C(=O)[C@@H]4[C@@H]3CN2S(=O)(=O)c2ccc(C)cc2)cc1
 : 0.9	10	12	-1.3
- CNC[C@@H]1Oc2ccc(NS(=O)(=O)c3ccccc3)cc2CC(=O)N([C@@H](C)CO)C[C@@H]1C
 : -1.1	4	-1	-0.9
- C[C@@H]1CCCCO[C@H](CN(C)S(=O)(=O)c2cccs2)[C@H](C)CN([C@H](C)CO)C(=O)c2cc(NS(=O)(=O)c3ccc(F)cc3)ccc2O1
 : -1.3	0	2	6.0
- C/C=C/c1ccc([C@@H]2[C@H](CO)N(S(=O)(=O)Cc3ccccc3)C23CN(C(=O)C2CCOCC2)C3)cc1
 : 3.3	1	-12	2.4
- CC(=O)Nc1ccc2c(c1)C(=O)N(C)[C@H]1CC[C@@H](CC(=O)NCc3ccccc3Cl)O[C@@H]1CO2
 : -0.6	7	1	-2.7
- CCOC(=O)C1(C)CCN1C(=O)c1cncc(Br)c1 (configuration not stated)
 : -1.4	8	6	-3.6
- Cc1noc(C)c1-c1ccc(C(=O)NCc2ccco2)c2occc12
 : 1.9	-5	-1	-2.1
- O=C(C[C@H]1C=C[C@H](NS(=O)(=O)c2ccc(F)cc2)[C@H](CO)O1)NC1CCC1
 : -1.0	4	13	-2.3

A portion of the library; count on the stated rates, not on these rows.
